High-throughput results from PubChem BioAssay.
CBX7 inh: inhibitors of human CBX7 binding to H3K27me3 peptide. O95931. AlphaScreen His6-CBX7 / biotin-H3K27me3 peptide binding; hits give low values. normalised signal (fraction of DMSO) (no concentration beside the values). 66,000 compounds, 1.1% hits; in the data active means normalised signal below about 0.5;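 further: 100 nL library stock added to about 20 µL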
Target sequence (O95931 whole entry, looked up): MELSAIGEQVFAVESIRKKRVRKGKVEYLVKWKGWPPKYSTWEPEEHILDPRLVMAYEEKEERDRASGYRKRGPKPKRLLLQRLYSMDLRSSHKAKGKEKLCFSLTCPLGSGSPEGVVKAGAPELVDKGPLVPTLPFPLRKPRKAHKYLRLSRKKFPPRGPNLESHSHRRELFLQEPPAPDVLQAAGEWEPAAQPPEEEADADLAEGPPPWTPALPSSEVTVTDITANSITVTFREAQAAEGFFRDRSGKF
CBX7 inh z-score: also measured in CBX7 inh; calls as there; z-score; measured here: z-score of CBX7 signal; some inactives read as strong as hits; reference of the scale not given here;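 same signal on another scale; lower means less binding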
* = called active by the depositor; & = joins results of further samples. Only part of the results is shown; count on the stated rates, not on these rows.

Values run as follows: CBX7 inh | CBX7 inh z-score
- CCN(CC)CC(C)CNC(=O)CSc1nc2nc(C)c(Cc3ccccc3C)c(C)n2n1 (stereo not drawn)
    1.3 | 1.5
- CCc1ccc(-c2nc(-c3ccncc3)no2)cc1
    1 | 0.11
- CCOc1ccc(Nc2ncc(F)c(Nc3ccc(OCC)cc3)n2)cc1
    1 | 0.56
- Cc1cccc2c1-c1sc(C(=O)N3CC(C)CC(C)C3)cc1CO2 (stereo not drawn)
    1.2 | 6
- CCCC1=Nc2cc(C(=O)N3CCC(Cc4ccccc4)CC3)ccc2Sc2ccc(C)cc21
    0.82 | -2.6
- COC(=O)Cc1nc(N2CCN(c3ccccc3F)CC2)c2c3c(sc2n1)CCCC3
    0.66 | -0.34
- COc1ccc(NC(=O)Cn2cc(S(=O)(=O)c3ccc(F)cc3)c(=O)c3ccccc32)cc1
    0.98 | -0.8
- COc1ccc(OCc2nc3ccccc3n2CCC(C)C)cc1
    0.92 | -2.4
- CN(c1ccccc1)C(C(=O)Nc1ccc2c(c1)OCCO2)c1ccccc1 (stereo not drawn)
    0.74 | -5.5
- Cc1ccccc1CN1C(=O)C(O)(CC(=O)c2ccc(C(C)C)cc2)c2ccccc21 (stereo not drawn)
    0.68 | -0.8
- COc1ccccc1N1CCN(C(=O)CN(C)S(=O)(=O)c2cnc[nH]2)CC1
    0.98 | -0.22
- Cc1ccc(NC(=O)C2CCN(c3nnc(-n4cccc4)s3)CC2)cc1
    1.2 | 2.2
- COc1ccccc1N1CCN(c2ncnc3scc(-c4ccc(Cl)cc4)c23)CC1
    0.89 | -0.22
- O=C(NCc1nnc(SCC(=O)N2CCCCCC2)o1)c1ccccc1F
    0.83 | -2.7
- CCOc1cc2[nH]c(=O)n(CCC(=O)NCc3cccnc3)c(=O)c2cc1OCC
    1 | 0.66

Following part
Values run as follows: CBX7 inh | CBX7 inh z-score
- Cc1ccc(C)c(N2CCN(c3nc(-c4ccccc4)c4cc(Br)ccc4n3)CC2)c1
    1.5 | 12
- O=C(CC1Sc2ccccc2NC1=O)Nc1ccccc1F (stereo not drawn)
    0.94 | -1.6
- COc1ccc(-c2cc(-c3c(O)ccc4ccccc34)[nH]n2)cc1
    0.82 | -7.5
- O=C(Nc1cccc(C(F)(F)F)c1)c1cc(-c2ccc(F)cc2)on1
    1.1 | 2.4
- COc1ccc(OCC(O)Cn2c(=N)n(Cc3ccccc3)c3ccccc32)cc1 (stereo not drawn)
    0.76 | -1.6
- CCC(=O)N1CCc2cc(S(=O)(=O)N3CCN(c4cccc(C)c4C)CC3)ccc21
    1.1 | 0.25
- O=C(CN1C(=O)COc2ccc(S(=O)(=O)N3CCCC3)cc21)NC1CCCc2ccccc21 (stereo not drawn)
    1 | -0.1
- CCC(=O)Nc1ccc(-c2csc(-c3ccccc3)n2)cc1
    1 | 1.1
- CCOC(=O)c1cnc2ccc(OCC)cc2c1NC1CCCC(C)C1C (stereo not drawn)
    1.3 | 3.5
- COc1ccc(C(=O)NCCc2cc3ccc(C)c(C)c3[nH]c2=O)cc1
    1.2 | 1.4
- Cc1ccc(Oc2ccccc2)c(NC(=O)c2ccccc2)c1
    1.3 | 0.45
- COc1ccc(-c2nnc(-c3ccc(S(=O)(=O)c4ccccc4)cc3)o2)cc1OC
    0.92&1 | -1.3&0.32
- NC(=O)Cn1c(SC2CCCCC2)nc2ccccc21
    1 | 0.77
- O=C(c1ccccc1F)N(Cc1ccccc1)C1CCS(=O)(=O)C1 (stereo not drawn)
    1 | 1.2
- COc1ccc(S(=O)(=O)NCCc2c(C)[nH]c3ccccc23)cc1OC
    0.85 | -2.4

More structures:
Values run as follows: CBX7 inh | CBX7 inh z-score
- CCC(Oc1ccc(F)cc1)C(=O)Nc1c(C(=O)c2ccc(Cl)cc2)oc2ccccc12 (stereo not drawn)
    1.4 | 1.2
- COc1ccccc1NC(=O)c1c(NC(=O)c2ccccc2)sc2c1CCCCC2
    1.1 | 0.2
- O=C1CN(C(=O)c2cccs2)C(c2ccc(F)cc2)c2cc(F)ccc2N1 (stereo not drawn)
    0.99 | -0.031
- COc1ccc(-c2cc3nc(C)c(CCC(=O)NCCC4=CCCCC4)c(C)n3n2)c(OC)c1
    1 | 0.26
- CC(C)CCNC(=O)CN1C(=O)CSc2ccc(S(=O)(=O)N3CCCCC3)cc21
    1.1 | 2.5
- COc1ccc(NC(=O)C(NC(=O)c2cnccn2)c2ccc(C)cc2)cc1 (stereo not drawn)
    0.97 | -0.79
- CCOC(=O)c1cc(-c2ccc(OC)cc2)n(CCC(=O)N2CCN(c3cc(C)ccc3C)CC2)c1C
    0.73 | -6.5
- CCc1ccccc1NC(=O)c1nn2c(C(F)(F)F)cc(-c3ccc(C)cc3)nc2c1Cl
    1.1 | 0.34
- Oc1cccc(Nc2nc(-c3ccncc3)cs2)c1
    0.77 | -4.6
- CCC1CCCCN1CCCNC(=O)CCNC(=O)Cn1ccc2ccccc2c1=O (stereo not drawn)
    0.99 | -0.12
- Cc1ccc(Cl)cc1NC(=O)c1cnc2scc(C)n2c1=O
    1 | 0.7
- O=C(NCc1ccccc1)C1CCN(c2nc3ccccc3o2)CC1
    1 | 0.78
- COc1ccc(-c2n[nH]c(C)c2-c2cnn(-c3ccccc3)c2)c(O)c1
    0.71 | -6.5
- COc1ccc(-n2c(Cc3cc(=O)[nH]c(=O)[nH]3)nnc2SCC(=O)Nc2ccccc2C)cc1
    0.84 | -2.5
- CCN(CC)CCCNC(=O)CCC(=O)Nc1ccc2nc(N3CCC(C)CC3)cc(C)c2c1
    0.98 | -0.9

Other compounds:
Values run as follows: CBX7 inh | CBX7 inh z-score
- O=C(CN1C(=O)CSc2ccc(S(=O)(=O)N3CCCCC3)cc21)NCCCN1CCCCC1
    0.99 | -0.37
- CC(NC(=O)CN1C(=O)CSc2ccccc21)c1ccccc1 (stereo not drawn)
    0.91 | -1.6
- CCn1cc(C(=O)Nc2ccc(OC)c(Cl)c2)c2cc(OC)c(OC)cc2c1=O
    0.97 | -0.69
- COC(=O)c1ccc(NC(=O)CN2CCCCC2)cc1
    1.5 | 4.3
- CCCN(C(=O)Cn1nc(Cc2cccnc2)c2ccccc2c1=O)c1ccc(OCC)cc1
    0.94 | -1.9
- O=C(NCc1ccc(F)cc1)c1cc(-c2ccc(F)cc2)on1
    1.1 | 0.19
- COc1cc2c(cc1OC)-c1nnnn1C(C)(C)C2
    0.99 | -0.28
- Cc1ccc(S(=O)(=O)Nc2ccc3[nH]c(=O)[nH]c3c2)cc1
    1 | 1.4
- CCOc1ccc(-c2nnc(Nc3ccc(S(N)(=O)=O)cc3)c3ccccc23)cc1
    1 | 0.1
- Cc1oc(-c2ccc(Cl)cc2)nc1CN1CCC(C(=O)NCCCN2CCCCCC2)CC1
    2.6 | 14
- COC(=O)c1ccc(NC(=O)C2(S(=O)(=O)c3ccc(Cl)cc3)CC2)cc1
    1 | 0.27
- Cc1ccc(-c2noc(CCC(=O)Nc3ccc(F)cc3F)n2)cc1
    1 | 0.058
- O=C(COc1ccc(Cl)cc1)Nc1nc(-c2ccccc2)cs1
    1 | 0.035
- CCOc1cc2c(cc1OCC)C1C(C(=O)Nc3ccc(CC)cc3)c3ccccc3C(=O)N1CC2 (stereo not drawn)
    0.96 | -0.36
- CCc1c(C)nc2[nH]nc(-c3ccccc3OC)n2c1=O
    1&0.99 | 0.062&-0.24

Remaining list, next part:
Values run as follows: CBX7 inh | CBX7 inh z-score
- Cc1ccc(CNC(=O)C2CCN(S(=O)(=O)c3c(C)noc3/C=C/c3cccs3)CC2)cc1
    0.96 | -0.075
- Cc1cc(C)nc(NC(=O)C(C)(C)Oc2ccc(Cl)cc2)n1
    1 | 0.92
- O=C(C1c2ccccc2C(=O)N2CCc3ccccc3C12)N1CCN(c2ccc(F)cc2)CC1 (stereo not drawn)
    0.92 | -1.4
- CCOc1ccc2nc(NC(=O)C3(S(=O)(=O)c4ccc(Cl)cc4)CC3)sc2c1
    0.97 | -0.45
- CCC(=O)N1c2ccc(S(=O)(=O)NCCCN3CCC(C)CC3)cc2CC1C (stereo not drawn)
    1.1 | 2.5
- COc1ccc(CCNC(=O)CCc2nc(-c3ccc(C)cc3)no2)cc1OC
    1.1 | 0.15
- Cc1ccc(S(=O)(=O)NCC2(c3ccccc3)CCCC2)cc1
    0.89 | -0.25
- O=C(Nc1cc(C(F)(F)F)ccc1Cl)c1cc(-c2ccc(F)cc2)on1
    1.1 | 1.4
- CC1CCN(S(=O)(=O)c2ccc3c(c2)N(CC(=O)NCc2ccc(Cl)cc2)C(=O)CO3)CC1
    1.1 | 1.8
- Cc1ccc2[nH]c(C)c(CN3CCN(C)CC3)c(=O)c2c1
    1 | 0.72
- c1ccc(-c2nnc3ccc(NCc4ccc5c(c4)OCO5)nn23)cc1
    1 | 0.15
- COC(=O)c1ccccc1NC(=O)COc1cccc(C)c1
    1.1 | 3.3
- Cc1ccc(NC(=O)CSc2nccn2-c2ccc(F)cc2)c(C)c1
    0.98 | -0.15
- CCN(CC)CCNC(=O)CCc1nc(-c2ccc(OC)cc2)no1
    1.1 | 3.1
- COc1ccc(CCNc2oc(COc3cccc(C)c3)nc2C#N)cc1OC
    0.46* | -9.8*

The list continues.
Values run as follows: CBX7 inh | CBX7 inh z-score
- O=C(CC1NCCNC1=O)Nc1cccc(C(F)(F)F)c1 (stereo not drawn)
    0.98 | -0.34
- COc1ccc(Cc2noc(-c3cccc(Br)c3)n2)cc1OC
    1.2 | 2.5
- COc1ccc(OCc2cn3cccnc3n2)cc1
    1 | 0.29
- CCOC(=O)c1cnc2ccc(OC)cc2c1NCCc1ccccc1
    1.3 | 4.4
- CC(C)c1ccc(NC(=O)CN2C(=O)CSc3ncccc32)cc1
    1.1 | 0.14
- Cc1cc(N2CCCCC2)nc2ccc(NC(=O)Cc3ccccc3Br)cc12
    0.99 | -0.098
- COc1ccccc1NC(=O)CN1C(=O)c2ccccc2Sc2ccc(C(=O)N3CCCC3)cc21
    1 | 0.014
- CCC(=O)N1CCc2cc(S(=O)(=O)NC(CC(C)C)C(=O)Nc3cc(C)cc(C)c3)ccc21 (stereo not drawn)
    1.1 | 0.69
- CCOc1ccccc1NC(=O)Cn1cnc2c(nnn2Cc2ccc(F)cc2)c1=O
    0.88 | -2
- CCOC(=O)CCc1c(C)nc2c(c(C)nn2-c2ccccc2)c1C
    0.98 | -0.18
- CC1=Nc2cc(C(=O)N(C)Cc3ccccc3)ccc2Sc2ccc(Cl)cc21
    0.98 | -0.26
- Cc1cc(N2CCC(C)CC2)n2nc(C)c(-c3ccc(Cl)cc3)c2n1
    1 | 1.2
- CCOc1ccc(OCC)c(NS(=O)(=O)c2ccc3c(c2)CC(C)N3C(=O)CC)c1 (stereo not drawn)
    1.4 | 1.7
- Cc1c(C(=O)N2CCC(C)CC2)sc2ncn(CC(=O)N3CCCCC3)c(=O)c12
    1 | -0.0071
- Cc1cc(C)c(NC(=O)CSc2nccn2-c2ccc(F)cc2)c(C)c1
    1.1 | 0.56

New compounds follow:
Values run as follows: CBX7 inh | CBX7 inh z-score
- CCc1ccc(OCC(=O)Nc2cccc(-c3nc4ccccc4o3)c2C)cc1
    0.99 | -0.19
- Cc1ccc(CN2C(=O)c3ccccc3C2C(=O)NC2CCCCC2)cc1 (stereo not drawn)
    1 | 0.44
- COc1ccc(Cc2cnc(NC(=O)COc3ccccc3Cl)s2)cc1
    1.1 | 0.44
- CC(C)c1ccc(-n2cnc3cc(C(=O)NCc4cccnc4)ccc32)cc1
    0.98 | -0.48
- CCCOc1ccc(N2C(=O)CC(NCc3ccc(Cl)cc3)C2=O)cc1 (stereo not drawn)
    1.1 | 1.6
- Cc1ccc(Cn2c(=O)cc(C(=O)NCc3ccccc3)c3ccccc32)cc1
    1 | 0.12
- Cc1ccccc1NS(=O)(=O)c1ccc2c(c1)CCN2C(=O)CCC(=O)O
    0.92 | -1.3
- COc1cccc(C(=O)N2CC(=O)Nc3ccc(Br)cc3C2c2ccccc2)c1 (stereo not drawn)
    0.94 | -1.6
- Cc1ccc(S(=O)(=O)Nc2c(-c3ccccc3)c3cc(Cl)ccc3[nH]c2=O)cc1
    1 | 0.66
- Cc1cc(N2CCC(C)CC2)nc2ccc(NC(=O)CCC3CCCC3)cc12
    1.1 | 1.4
- CCN1CCCC1CNC(=O)CCNC(=O)Cn1ccc2ccccc2c1=O (stereo not drawn)
    1 | 0.16
- CCC1CCCCN1CCCNC(=O)C1CCN(Cc2nc(-c3ccc(Cl)cc3)oc2C)CC1 (stereo not drawn)
    2.2 | 10
- COc1ccc(NC(=O)Cn2c(SCc3cccc(C)c3)nc3ccncc32)cc1OC
    0.88 | -1.7
- O=C(Nc1nc(-c2ccccc2)cs1)c1cccnc1
    1 | 0.35
- Cc1csc(NC(=O)CN(C)S(=O)(=O)c2ccc3c(c2)CCC(=O)N3)n1
    0.93 | -1.7
- O=C(Nc1cc(-c2nc3ncccc3o2)ccc1Cl)c1ccc2c(c1)OCO2
    1 | 0.039
- CCC(=O)N1CCc2cc(S(=O)(=O)Nc3cccc(OC)c3)ccc21
    0.82 | -0.71
- O=C(O)c1cccc(NC(=O)c2cccc(S(=O)(=O)N3CCCCC3)c2)c1
    1 | 0.038

Another view of some results above:
mol,CBX7 inh,CBX7 inh z-score
COc1ccc(Cc2cnc(NC(=O)COc3ccccc3Cl)s2)cc1,1.1,0.44
CC(C)c1ccc(-n2cnc3cc(C(=O)NCc4cccnc4)ccc32)cc1,0.98,-0.48
CCCOc1ccc(N2C(=O)CC(NCc3ccc(Cl)cc3)C2=O)cc1 (stereo not drawn),1.1,1.6
Cc1ccc(Cn2c(=O)cc(C(=O)NCc3ccccc3)c3ccccc32)cc1,1,0.12

5 entries picked at random from the list so far, as already listed:
Values run as follows: CBX7 inh | CBX7 inh z-score
- CCN(CC)CCCNC(=O)CCC(=O)Nc1ccc2nc(N3CCC(C)CC3)cc(C)c2c1
    0.98 | -0.9
- Cc1cc(N2CCC(C)CC2)nc2ccc(NC(=O)CCC3CCCC3)cc12
    1.1 | 1.4
- CCOc1cc2c(cc1OCC)C1C(C(=O)Nc3ccc(CC)cc3)c3ccccc3C(=O)N1CC2 (stereo not drawn)
    0.96 | -0.36
- Cc1cc(N2CCC(C)CC2)n2nc(C)c(-c3ccc(Cl)cc3)c2n1
    1 | 1.2
- COC(=O)c1ccccc1NC(=O)COc1cccc(C)c1
    1.1 | 3.3
